Screening data deposited in PubChem by National Center for Advancing Translational Sciences (NCATS).
VACV mCherry inh – qHTS for Stage-Specific Inhibitors of Vaccinia Orthopoxvirus: mCherry Reporter Primary qHTS; Vaccinia virus mCherry reporter infection, fluorescence; about a quarter of the inactives have no number; Potency, µM (titrated, usually from 36.5 µM), for inactives: top-dose activity change, negative = inhibition, most hits filed as inhibitors; hit rate 0.63% among 310,000; active = well fitted inhibition curve with a large enough effect; inconclusive = small, poorly fitted or top-dose-only effect; inactive = no such curve, though single readings can be large or run the other way; tested in A549 cells; note: nearly all actives have a fitted effect of over 35% in size; inactives centre near -10
VACV Venus inh – qHTS for Stage-Specific Inhibitors of Vaccinia Orthopoxvirus: Venus Reporter Primary qHTS. Potency, µM (highest dose often 36.5 µM), for inactives: top-dose activity change, negative = inhibition, actives largely listed as inhibitors. hit rate 0.46% among 330,000. Vaccinia virus Venus reporter expression, fluorescence. AID 720580, 2013; active means well fitted inhibition curve with a large enough effect; inconclusive means small, poorly fitted or top-dose-only effect; inactive means no such curve, though single readings can be large or run the other way; tested in A549 cells; note: nearly all actives have a fitted effect of over 30% in size; inactives centre near -10
* = called active by the depositor; i = inactive; ? = inconclusive; · = no result given; & = joins results of further samples; [ ] = dose if it differs, or a comment. % is set by controls: 0 for no effect and ±100 for the full control effect; potency is the fitted concentration of half-maximal effect.

SMILES | VACV mCherry inh | VACV Venus inh
CCC(C)Sc1ccc([C@H]2N[C@@](Cc3ccccc3)(C(=O)OC)[C@H]3C(=O)N(CC)C(=O)[C@@H]23)cc1OC (some centres not stated) | i | -26%
CC(NC(=O)c1cnc2n(c1=O)CCS2)c1ccccc1 (configuration not stated) | i | -9%
Cc1cc(N2CCCCC2)ccc1[N+](=O)[O-] | -15% | -12%
Nc1nc(-c2cccnc2)nn1C(=O)c1ccccc1Cl | i | -17%
COc1cc(/C=N/NC(=O)COc2c(C)cc([N+](=O)[O-])cc2C)ccc1OC(=O)c1ccccc1 | -16% | -11%
Cc1cc(C(F)(F)F)nc(SCCN2CCCCC2)c1C#N | -16% | -12%
CC(=O)c1cccc(S(=O)(=O)N2CCC(C(=O)O)(c3ccccc3)CC2)c1 | 5% | -9%
COCC(C)n1c(SCC(=O)NNC(=O)c2ccccc2)nc2ccccc2c1=O (configuration not stated) | -13% | -13%
Cc1noc(C)c1COC(=O)c1cc(=O)[nH]c2ccccc12 | · | -13%
N#C/C(=C(/O)CCl)c1nc(-c2ccccc2)cs1 | ? | -15%
C/C=C/c1cccc(-c2nc(C(=O)N3CCOCC3)cc3c2[C@H](CCO)N(C(=O)NC(C)C)C3)c1 | 4% | 4%
COc1cc(-c2ccc(C)cc2)cc2c1OCCN(C(=O)CCn1ccc(C)n1)C2 | -18% | -8%
O=C(N/N=C/C(Cl)=C/c1ccccc1)c1ccccc1F | -14% | -5%
CC(C)CNS(=O)(=O)c1cc(C(=O)OC2CCOC2=O)c(Cl)cc1Cl (configuration not stated) | 10% | 1%
Cc1ccc(S(=O)(=O)c2cc3ccccc3nc2N)cc1 | -13% | -9%
O=C(CN1C(=O)c2ccccc2S1(=O)=O)Nc1ncc([N+](=O)[O-])s1 | i | -8%
CC(=O)c1ccc(NC(=S)NNC(=O)c2ccccc2[N+](=O)[O-])cc1 | -2% | -4%
O=C(Cn1cc(C(F)(F)F)cc(Cl)c1=O)Nc1ccc(N2CCOCC2)cc1 | 1% | 0%
COc1ccc(CNC(=O)COc2ccc(F)cc2)cc1 | i | -4%
CN1C2CCC1CC(NC(=O)c1ccc([N+](=O)[O-])cc1)C2 (configuration not stated) | ? | -17%
O=C(CCCn1c(=O)c2cccn2c2cccnc21)NCc1ccccc1Br | -4% | ?
COc1cc(-c2c(C#N)c(N)nc3c2CCCC3)ccc1O | ? | -21%
O=C(NC1CCCCC1)c1ccc(CSc2nc3cccnc3n2Cc2ccc(F)cc2)cc1 | -18% | -16%
CCN1CCN(CCNC(=O)c2ccc3c(c2)N(Cc2ccc(F)cc2)C(=O)c2ccccc2S3=O)CC1 (configuration not stated) | -2% | -28%

At a glance, 3 of the compounds above:
SMILES | VACV mCherry inh | VACV Venus inh
COc1cc(-c2c(C#N)c(N)nc3c2CCCC3)ccc1O | ? | -21%
O=C(NC1CCCCC1)c1ccc(CSc2nc3cccnc3n2Cc2ccc(F)cc2)cc1 | -18% | -16%
CCN1CCN(CCNC(=O)c2ccc3c(c2)N(Cc2ccc(F)cc2)C(=O)c2ccccc2S3=O)CC1 (configuration not stated) | -2% | -28%

Next part
SMILES | VACV mCherry inh | VACV Venus inh
CCOC(=O)c1ccccc1NC(=O)COC(=O)C1CCCC1 | -1% | -11%
S=C(Nc1ccccc1)Nc1nc2ccccc2n1CCOc1ccc(Br)cc1 | i | -4%
Cc1cc(CNC(=O)c2cc(-c3ccccc3)nc3ccccc23)nn1C | -15% | -7%
CN(CCc1cn[nH]c1)C(=O)CC1C(=O)NCCN1Cc1cccc(Oc2ccccc2)c1 (configuration not stated) | -8% | -17%
COCCCNc1nc(NCc2ccc(C)cc2)c2cnn(C)c2n1 | -11% | -10%
Cc1ccc(NC(=S)N2CCC(N(C)CC3CCCO3)CC2)cc1 (configuration not stated) | i | -11%
CCn1cc(Cl)c(C(=O)N2N=C(c3ccc4ccccc4c3)CC2c2ccccc2O)n1 (configuration not stated) | -29% | ?
CCc1ccc(OCC(=O)N(Cc2ccc(C)o2)C2CCS(=O)(=O)C2)cc1 (configuration not stated) | -13% | 1%
C=CCn1c(O)c(CN2CCCCC2)c(C)c(C#N)c1=O | i | 3%
COc1ccc(C2CC(=O)c3cc(-c4nc(-c5ccc(Cl)cc5)cs4)c(=O)[nH]c3C2)cc1 (configuration not stated) | -7% | -4%
COc1cc(OC)c(NS(=O)(=O)c2cc3c(cc2C)N(C(C)=O)CCO3)cc1Cl | -14% | -6%
CCc1ccc2nc(N=C(N)N)nc(C)c2c1 | ? | ?
Cc1cc(C)c(-n2c(O)c(C=NCCN3CCOCC3)c(=O)[nH]c2=O)c(C)c1 | -11%[1.46 µM] | -13%
CCCCCCCCCS(=O)(=O)Nc1cc(C)ccn1 | -10% | -13%
CCc1nc(SCC(=O)Nc2ccc3c(c2)OCCO3)c2oc3ccccc3c2n1 | 0% | -4%
CC(=O)N1CCN(C(C(=O)Nc2c(C)cccc2C)c2cccc(F)c2)CC1 (configuration not stated) | -2% | -12%
COC(=O)C1CN(C(=O)c2ccc(OC(F)F)cc2)c2ccccc2O1 (configuration not stated) | i | -2%
O=C(Nc1nnc(-c2ccncc2)o1)c1cccc(N2C(=O)CCC2=O)c1 | -1% | -11%
Cc1cc(C(F)(F)F)n(-c2nc(C(=O)NN)cs2)n1 | i | -5%
CNc1ccc(-c2cc(OC)ccc2OC)cn1 | 17% | 4%
O=C(OCc1cn([C@H]2C[C@H](c3ccc(Cl)cc3)N(Cc3cccs3)C[C@@H]2O)nn1)c1ccccc1 | ? | -13%
O=C(NCCCCc1ccccc1)C1CC(c2cc(C(F)(F)F)cc(C(F)(F)F)c2)=NO1 (configuration not stated) | -32% | -7%
CCc1nnc2n1N=C(c1ccc([N+](=O)[O-])cc1)CS2 | -16% | -10%
C=CCNC(=O)C1CC1(c1ccc(C)cc1)c1ccc(C)cc1 (configuration not stated) | -18% | -13%

Part of the list above, with values under each structure.
Under each structure – VACV mCherry inh	VACV Venus inh
CC(=O)N1CCN(C(C(=O)Nc2c(C)cccc2C)c2cccc(F)c2)CC1 (configuration not stated)
    -2%	-12%
COC(=O)C1CN(C(=O)c2ccc(OC(F)F)cc2)c2ccccc2O1 (configuration not stated)
    i	-2%

The list goes on.
SMILES | VACV mCherry inh | VACV Venus inh
Cc1ccc(-n2c(=O)c3sc4ccccc4c3n(C)c2=O)cc1F | -5% | 1%
CCCCN(CC)CCNC(=O)Cn1cnc2sc(C)c(S(=O)(=O)N3CCC(C)CC3)c2c1=O | -25%&-14% | -5%&-13%
COc1ccc(NCC(O)Cn2cnc3c2c(=O)n(C)c(=O)n3C)cc1 (configuration not stated) | i | -12%
O=C(Nc1nc(-c2ccccc2)cs1)c1cccc([N+](=O)[O-])c1C(=O)O | i | -13%
CCc1ccccc1NC(=O)Nc1cc(C(=O)NCc2ccccc2OC)ccc1N1CCCC1 | i | -13%
CCCCN(C)C(=O)c1cn(-c2cccc(OC)c2)c(=O)c2ccccc12 | -13% | -17%
CCn1ccnc1CN(C)Cc1cn(-c2ccc(C)cc2)nc1-c1cccc(C)c1 | -10% | -26%
COc1ccc(NC(=O)N2CCc3c([nH]c4ccc(OC)cc34)C2c2ccc(OC)cc2)cc1 (configuration not stated) | -6% | -4%
C[C@H](CO)N1C[C@H](C)[C@@H](CN(C)S(=O)(=O)c2ccc(C#N)cc2)OCc2cn(nn2)CCCC1=O | i | -15%
Cc1ccccc1NC(=O)c1c(C)nc(SCC(=O)OCc2ccccc2)c(C#N)c1-c1ccc(F)cc1 | -13% | -8%
CCCn1c2ccc(F)cc2c2nnc(SCCN3CCOCC3)nc21 | -13% | -14%
Clc1cncc(Cl)c1NNc1c2ccccc2nc2ccccc12 | -2% | -4%
CCCCN(CC)CCCNC(=O)c1ccc2c(c1)N(Cc1ccc(C)cc1)C(=O)c1ccccc1S2 | 13µM* | ?
CCCNC(=O)c1cc(C2CCCCN2C(=O)c2cc(F)ccc2C)on1 (configuration not stated) | -5% | -2%
CCOC(=O)c1ccc(NC(=S)N(CCN2CCCCCC2)Cc2cccs2)cc1 | -7% | -6%
CCn1c(SCc2ccc(OC)c(F)c2)nc2ccccc2c1=O | -8% | -6%
COc1ccc(-c2onc(C)c2-c2cnn(-c3ccccc3)c2)c(O)c1 | -16% | -25%
O=C(Nc1ccc(Br)cn1)c1cccc(S(=O)(=O)N2CCCC2)c1 | i | 0%
COc1cc(OC)c(OC)cc1CN1CCCC(n2cc(C(=O)N3CCCCC3)nn2)C1 (configuration not stated) | -21% | -4%
CCCCCN(C(=O)COC(=O)CSc1ccc([N+](=O)[O-])cc1)c1c(N)n(CCCC)c(=O)[nH]c1=O | i | 1%
C=C(Cl)COc1ccc2c(CC)cc(=O)oc2c1 | -12% | 2%
COc1ccc(C(NC(=O)C2CCN(CCCOc3ccccc3)CC2)c2cccs2)cc1 (configuration not stated) | i | -10%
CC1=C(C(=O)Nc2cc(Cl)ccc2C)C(c2ccccc2F)n2ncnc2N1 (configuration not stated) | -7% | -8%
O=C(Nc1ccc(N2C(=O)C3CCCCC3C2=O)cc1Cl)c1cccs1 (configuration not stated) | i | -10%
CCCCNC(=O)c1nc(C2CCN(S(=O)(=O)c3ccc(F)c(F)c3)CC2)oc1-c1cccc(C(F)(F)F)c1 | i | -8%
Cn1cccc1Cc1nnc(SCC(=O)Nc2ccc3c(c2)OCO3)n1CCc1ccccc1 | 1% | -10%
CCOc1cc(C2NC(=O)c3c(sc4c3CCN(C)C4)N2)ccc1OC(=O)c1ccc(F)cc1 (configuration not stated) | -8% | -10%
O=C1OC(OC(=O)c2ccccc2Br)C(N2CCOCC2)=C1Cl (configuration not stated) | i | -8%
COC(=O)c1cccc(NC(=O)CSc2ncn[nH]2)c1 | · | -1%
COc1ccc(CCNS(=O)(=O)c2cccc(S(=O)(=O)N3CCCC3)c2)cc1OC | · | -21%
COC(=O)c1ccccc1NC(=O)Nc1cccs1 | -15%[1.46 µM] | -13%
Cc1ccc2[nH]c(=O)c(CN(Cc3ccccc3)Cc3nnnn3C3CCCC3)cc2c1 | ? | -4%
CC(C)C(=O)NNC(=O)C1CC1(c1ccccc1)c1ccccc1 (configuration not stated) | -10% | -9%
CC1CN(S(=O)(=O)c2cccc(C(=O)OCC(=O)c3cccs3)c2)CC(C)O1 (configuration not stated) | i | 4%
CCOc1ccccc1N(C)C(=O)CCS(=O)(=O)c1ccc2c(c1)NC(=O)CO2 | -18% | -4%
CCOc1cccc(C(=O)Nc2ccc(NC(=O)c3cc4ccccc4o3)c(OC)c2)c1 | -8% | -2%
Cc1ccccc1C(=O)OCC(=O)N(C)c1ccccc1 | -16% | -5%
CN1CCN(C(=O)/C(=C/c2ccc(N(C)C)cc2)NC(=O)c2ccccc2)CC1 | -2% | 0%
O=C1/C(=C/c2ccc(Cl)cc2)NC(=S)N1Cc1cccnc1 | i | -4%
COc1ccc(CN2C(=O)c3cccnc3C2=O)cc1S(=O)(=O)N(C)Cc1ccco1 | -23% | -9%
CCn1c(SCc2cccc(C)c2)nnc1-c1ccc(C)cc1 | ? | -21%
COC(=O)Nc1ccc(S(=O)(=O)N(CCO)CCO)cc1 | -10% | -10%
Cc1ccc(S(=O)(=O)c2cnc(SCC(=O)Nc3cc(C)cc(C)c3)nc2N)cc1 | -25% | -27%
N#Cc1ccsc1NC(=O)COC(=O)c1ccc2ccccc2c1 | -10% | -8%
O=C(Cn1nnc(-c2ccccc2Cl)n1)Nc1cccc(S(=O)(=O)N2CCCC2)c1 | -8% | -15%
C[C@H](CO)N1C[C@H](C)[C@@H](CN(C)CC2CCCCC2)Oc2c(NS(=O)(=O)c3ccccc3)cccc2C1=O | i | -9%
COc1ccccc1NC(=O)C/C(N)=N/O | i | -8%
O=[N+]([O-])/C(C(Cl)=C(Cl)Cl)=C(/NC1CC1)Sc1ccccc1 | -2% | 1%

An excerpt of these results, with two lines to a compound.
Every second line gives: VACV mCherry inh	VACV Venus inh
- C[C@H](CO)N1C[C@H](C)[C@@H](CN(C)CC2CCCCC2)Oc2c(NS(=O)(=O)c3ccccc3)cccc2C1=O
→ i	-9%
- COC(=O)Nc1ccc(S(=O)(=O)N(CCO)CCO)cc1
→ -10%	-10%
- CCn1c(SCc2cccc(C)c2)nnc1-c1ccc(C)cc1
→ ?	-21%

Next records:
SMILES | VACV mCherry inh | VACV Venus inh
COC(=O)c1cccc(NCN2C(=O)c3ccccc3C2=O)c1 | -4% | -1%
CCCCOc1ccc(-c2cc(C(F)(F)F)c(C#N)c(SCC(=O)O)n2)cc1 | -22% | -2%
COc1ccc(CN2C(=O)C(CC(=O)NCc3ccco3)CC(C(=O)N(C)C)=C2C)cc1 (configuration not stated) | -5% | -17%
Fc1ccc(C(c2ccc(F)cc2)N2CCN(C/C=C/c3ccccc3)CC2)cc1 | -10%&-14% | ?
O=C(Nc1ccccc1F)C1CCCN(S(=O)(=O)c2ccc(-n3cnnn3)cc2)C1 (configuration not stated) | 0% | 12%
COC(=O)c1ccccc1NC(=O)Nc1nnc(N2CCC(C)CC2)s1 | -8%&-1% | -2%&-10%
CC(C)CN1Cc2cc(-c3cccc(F)c3)ccc2-n2nncc2C1 | 18% | -2%
O=C(/C=C/c1ccc(S(=O)(=O)N2CCOCC2)cc1)NCc1ccc(Cl)cc1 | -25% | -20%
COc1ccc(CC(=O)Nc2ccc3nc(Nc4cccc(Cl)c4)cc(C)c3c2)cc1 | ? | ?
O=C(Nc1nc(-c2ccccc2)cs1)C1c2ccccc2Oc2ccccc21 | -13%[1.46 µM] | -14%
